# Compound activity (PubChem BioAssay)
# E coli growth = inhibitors of Escherichia coli growth; OD600, 23 h; active compounds read low; OD600 absorbance (test concentration not listed); actives 0.21% (n = 330,000); AID 1053175;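 active means OD600 absorbance below the run mean of sample wells minus 3.6 SD, in any replicate, cut at about 0.56 in these data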;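 further: stock transfer was 300 nL into about 60 µL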
# Ecoli rRNA inh = inhibitors of bacterial rRNA selective over humanized ribosomes; E. coli WT GFP vs humanized-ribosome RFP mutants, fluorescence, 24 h; active compounds read low; DMSO median 0, no signal -100; GFP signal change (wild-type ribosome), % (test concentration not listed); actives 1.6% (n = 350,000); AID 720706;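 active means significant combined selectivity score with lowered wild-type GFP, culture density cut under 30%, mutant RFP and density less affected; inactive means any of these conditions unmet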; further: one replicate is shown; some compounds called inactive have numbers as strong as hits
# HNF4A DNA FP = change in binding of human HNF4 alpha to DNA. AID 1224865. actives 0.3% (n = 360,000). activity change, % at 10 µM. P41235. HNF4a-FITC DNA binding, fluorescence polarization, 1 h; in the data active means activity change above about 30%, passing the limit was not always enough;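 further: controls were the assay level and a saturating level of protein; the project sought stronger binding though the title names inhibitors; some compounds called inactive have numbers as strong as hits; positive values seem to mean higher polarization but the record does not say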
# FGF22 binding = FGF22 (human) thermal shift binding; Q9HCT0; recombinant FGF22 thermal shift, SYPRO orange fluorescence; percent of sucrose octasulfate shift, DMSO zero; actives 1.5% (n = 340,000); AID 651658; calls only at 9.99 µM;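 active means melting point raised past a set limit in the mean and every replicate; inconclusive means no clear call; three in four hits are not shown here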
# Target sequence (Q9HCT0 whole entry, looked up): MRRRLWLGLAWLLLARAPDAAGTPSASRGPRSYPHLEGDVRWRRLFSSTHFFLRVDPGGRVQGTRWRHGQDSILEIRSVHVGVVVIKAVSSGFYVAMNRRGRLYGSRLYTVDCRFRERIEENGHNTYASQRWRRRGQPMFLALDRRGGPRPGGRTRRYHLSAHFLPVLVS
# Vif TR-FRET = inhibitors of Vif binding to APOBEC3G peptide, primary screen, biochemical, TR-FRET, GST-Vif 1-94, biotin-A3G peptide, dose response retest (AID 1117319). inhibition, %; hits with a dose series show IC50 in µM. TR-FRET GST-Vif / biotin-A3G peptide binding; higher % means a stronger effect; test concentration not given here; strong numbers were not always called active. actives 0.57% (n = 260,000);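 active means above the screen mean plus three standard deviations and confirmed in dose response; inconclusive means results disagree or hit not tested in dose response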;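 further: Vif residues 1-94 fused to GST binding biotinylated APOBEC3G peptide 110-148; 0% = full assay without inhibitor and 100% = GST in place of GST-Vif; retest series ran down from 100 µM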
# MLL AF4-AF9 inh = inhibitors of human MLL-AF4/AF9 interaction. inhibition, % at 10 µM. actives 0.47% (n = 350,000). P42568. AlphaScreen, biotin-AF4 peptide binding to FLAG-AF9. AID 651704;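 active means every replicate reaching a set inhibition limit, whatever the replicate mean, cut at about 25% in these data; inconclusive means mean inhibition reaches that limit but some replicates miss it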;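 further: 0% = plate neutral control median and 100% = total signal loss; the record names both 10 and 1 µM as test concentration; the first replicate is given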
# Target sequence (P42568 whole entry, looked up): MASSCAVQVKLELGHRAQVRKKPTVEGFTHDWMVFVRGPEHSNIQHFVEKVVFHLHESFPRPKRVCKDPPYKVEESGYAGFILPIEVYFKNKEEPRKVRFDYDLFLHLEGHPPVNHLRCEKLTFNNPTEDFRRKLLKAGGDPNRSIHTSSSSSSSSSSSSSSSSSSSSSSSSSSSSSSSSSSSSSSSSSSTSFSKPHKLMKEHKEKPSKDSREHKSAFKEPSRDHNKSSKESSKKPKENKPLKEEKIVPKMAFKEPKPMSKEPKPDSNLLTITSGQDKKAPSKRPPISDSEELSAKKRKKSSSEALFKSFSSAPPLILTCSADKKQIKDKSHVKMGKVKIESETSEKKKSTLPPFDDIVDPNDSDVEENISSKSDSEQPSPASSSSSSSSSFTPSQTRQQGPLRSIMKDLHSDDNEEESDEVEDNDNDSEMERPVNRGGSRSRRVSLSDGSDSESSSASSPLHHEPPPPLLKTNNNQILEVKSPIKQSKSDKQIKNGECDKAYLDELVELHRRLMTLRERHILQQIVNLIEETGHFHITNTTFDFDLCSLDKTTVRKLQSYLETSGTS
# ALR inh = human ALR oxidase inhibition via reduced H2O2; inhibition, % (no concentration beside the values); actives 3.8% (n = 290,000); P55789; purified ALR, DTT oxidation, H2O2 HRP-luminol luminescence;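 active means mean and each replicate at 75% or more; inconclusive means only one of the two met; inactive means neither met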;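 further: stock transfer was 7.5 nL into about 7.5 µL; 0% = neutral wells and 100% = wells with inactivated enzyme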
# Target sequence (P55789 whole entry, looked up): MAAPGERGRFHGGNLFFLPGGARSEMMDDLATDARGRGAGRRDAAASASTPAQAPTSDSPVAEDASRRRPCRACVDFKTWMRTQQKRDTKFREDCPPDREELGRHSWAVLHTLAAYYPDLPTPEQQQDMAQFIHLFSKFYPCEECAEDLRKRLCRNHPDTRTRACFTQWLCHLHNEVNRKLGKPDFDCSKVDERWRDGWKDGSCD
# Ecoli rRNA inh OD600 = also measured in Ecoli rRNA inh; calls as there; OD600 change, %; measured here: OD600 growth;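 optical density of the mix in the first replicate; 0 = DMSO median and -100 = no signal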
# Ecoli rRNA inh RFP = second read-out of Ecoli rRNA inh, no call of its own (marks repeat the call); RFP signal change, %; measured here: RFP humanized mutant strains;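 first replicate; 0 = DMSO median and -100 = no signal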
# Starred values were filed as active, the others as inactive; i = inactive; ? = inconclusive; / = no result given; & = joins results of further samples. These rows are one share of the data; count on the stated rates, not on these rows.
SMILES,E coli growth,Ecoli rRNA inh,Ecoli rRNA inh OD600,Ecoli rRNA inh RFP,HNF4A DNA FP,FGF22 binding,Vif TR-FRET,MLL AF4-AF9 inh,ALR inh
COc1cccc(C2NC(=O)NC(C)=C2C(=O)Nc2ccc(C)cc2)c1OC (stereo not drawn),0.68,2,1,-1.3,0.3,i,-1%,-8.0,-11
O=S(=O)(Nc1nc2ccccc2nc1N1CCN(c2ccccn2)CC1)c1ccc(Cl)cc1,0.67,/,/,/,-48,/,2%,/,/
CCCc1ccc(OCc2ccc(C(=O)N3CCCC3)o2)cc1,0.58,-57,-81,-23,-3.2,i,/,-0.2,-1
CN(C)c1ccc(NC(=O)Nc2ccc3snnc3c2)cc1,0.74,/,/,/,-2.9,/,21%,/,95*
Cc1cc(C)c(NC(=O)Cn2nnc(C(=O)NCc3cccs3)c2N)c(C)c1,0.72,/,/,/,-4.5,/,-2%,/,/
COc1cccc(-c2nc(CS(=O)(=O)CC(=O)NC3CCCCCC3)c(C)o2)c1,0.66,5,9,-3.1,3.4,i,/,-7.6,98*
COC(=O)c1ccc(CNC(=O)COC(=O)/C=C/c2cccc(OC)c2)cc1,/,0,2,2.6,-1.2,i,4%,0.0,/
O=C(O)C[C@H]1CC[C@@H](NC(=O)c2ccccc2F)[C@@H](CO)O1,/,5,2,-1.9,/,i,/,-4.5,/
CC(C)CC(C(=O)Nc1ccc2c(c1)OCCO2)N1C(=O)c2ccccc2C1=O (stereo not drawn),0.77,/,/,/,0.1,/,4%,/,-5
COc1ccc(C2C(C(=O)/C=C/c3ccco3)=C(O)C(=O)N2CCN2CCOCC2)cc1OC (stereo not drawn),0.72,5,5,6.3,3.0,/,?,3.0,-18

# Two entries from above, with tabs:
SMILES	E coli growth	Ecoli rRNA inh	Ecoli rRNA inh OD600	Ecoli rRNA inh RFP	HNF4A DNA FP	FGF22 binding	Vif TR-FRET	MLL AF4-AF9 inh	ALR inh
Cc1cc(C)c(NC(=O)Cn2nnc(C(=O)NCc3cccs3)c2N)c(C)c1	0.72	/	/	/	-4.5	/	-2%	/	/
COc1cccc(-c2nc(CS(=O)(=O)CC(=O)NC3CCCCCC3)c(C)o2)c1	0.66	5	9	-3.1	3.4	i	/	-7.6	98*

# (further entries)
SMILES,E coli growth,Ecoli rRNA inh,Ecoli rRNA inh OD600,Ecoli rRNA inh RFP,HNF4A DNA FP,FGF22 binding,Vif TR-FRET,MLL AF4-AF9 inh,ALR inh
O=S(=O)(c1ccccc1F)N1CCCCN2[C@H](CO)[C@H](c3ccc(-c4ccccc4)cc3)[C@@H]2C1,/,-4,0,1.6,/,i,/,-1.6,/
CN(C)C(=S)N=c1ssc(=S)n1Cc1cccnc1,/,9,12,-3.5,3.7,i,/,-7.0,/
CCC1Nc2ncnc(N3CCN(c4ccccc4)CC3)c2N(Cc2ccc(C)cc2)C1=O (stereo not drawn),0.71,14,8,1.6,3.9,i,/,7.6,7
CCC(C)(C)n1nnnc1C(c1cc2cc(OC)c(OC)cc2[nH]c1=O)N1CCc2ccccc21 (stereo not drawn),0.74,/,/,/,0.5,/,11%&8%,/,-9
O=C(CC1C(=O)NCCN1CC1CCCCC1)NC1(c2ccccc2)CC1 (stereo not drawn),0.67,6,-4,0.7,4.1,i,/,3.8,-2
C[C@@H]1CN([C@H](C)CO)C(=O)c2cc(NC(=O)c3ccncc3)ccc2O[C@H]1CN(C)C(=O)Nc1ccccc1,/,2,-3,-1.4,/,i,/,-3.8,/
CN(Cc1ccccc1)C(=O)c1ccc(NC(=O)Cc2ccc([N+](=O)[O-])cc2)cc1,0.61,-9,-20,-12,2.8,i,/,7.3,1
Cc1ccc(/C=C2\C(=O)ON=C2c2ccccc2)o1,0.66,10,8,-2.6,0.2,/,/,6.1,16
CCOc1ccc(C2C(C(=O)c3cccs3)=C(O)C(=O)N2CCN2CCOCC2)cc1 (stereo not drawn),0.67,5,11,-1.2,0.1,i,-8%,8.4,-5
CCCOc1ccc(-c2c(C(=O)N/N=C(\C)c3cccnc3)nnn2-c2nonc2N)cc1,/,8,16,2.2,-0.6,i,/,3.7,-1
O=[N+]([O-])c1ccccc1CNC1CCCCCC1,0.64,10,19,-1.1,0.6,i,/,1.3,-22
COc1ccc(Cl)cc1N1C(=O)[C@@H]2C(c3cccc(OC)c3OC)=NO[C@@H]2C1=O,0.7,/,/,/,-2.4,/,11%,/,/
COC(=O)[C@@]12C[C@@H](CC(=O)N3CCC(c4ccccc4)CC3)C(=O)N(Cc3ccco3)C1=CCC(C)(C)C2,/,4,-8,-9.8,4.1,i,/,8.8,/
O=C(Nc1nc(-c2ccncc2)cs1)c1ccc(S(=O)(=O)N2CCOCC2)cc1,0.73,/,/,/,-2.0,/,0%,/,1
COc1ccc2nc(N3C(=O)C(O)=C(C(=O)c4ccco4)C3c3ccc(OC)c(OC)c3)sc2c1 (stereo not drawn),/,-10,5,6.1,3.0,i,-6%,0.7,/
COc1ccccc1N(C)S(=O)(=O)c1ccc(C(=O)N2CCC(C(N)=O)CC2)cc1,0.72,0,-6,-2.0,2.2,/,3%,/,1
COC(=O)c1c(C)oc(C)c1S(=O)(=O)NCc1ccc(Cl)cc1Cl,0.61,-4,-2,0.4,3.9,i,-3%,-3.2,/
CCOC(=O)c1sc(NC(=O)CN2C(=O)C3CC=CCC3C2=O)nc1C (stereo not drawn),0.69,-1,8,-1.8,-5.0,i,/,-1.5,2
COc1cc2c(cc1OC)C(Cc1ccccc1[N+](=O)[O-])=NCC2,/,/,/,/,-2.5,i,-9%,7.1,/
CSCC[C@H](NC(=O)NC1CCCC1)C(=O)O,0.69,11,8,-1.6,-0.9,i,28%,2.2,-4
O=C(Nc1ccon1)c1ccc2c(c1)OCO2,0.67,/,/,/,-3.1,/,-4%,/,-2
C=C(C(=O)c1ccccc1)C(C(=C)C(=O)c1ccccc1)c1ccc(OC)cc1,0.69,/,/,/,-0.6,i,/,-2.3,/
O=C(C[C@@H]1CC[C@@H]2[C@H](COC[C@H](O)CN2CC2CCOCC2)O1)N1CCOCC1,/,3,12,-0.8,/,i,/,-7.3,/
O=C(Nc1ccnn1C1CCN(C2CCCCC2)CC1)c1ccccc1,/,16,13,5.0,-4.6,i,/,1.5,9
COc1ccccc1-n1cnnc1SCC(=O)N1CCOCC1,0.7,9,8,-2.4,1.6,i,/,1.5,-1
COc1cc(Nc2ccn3nccc3n2)cc(OC)c1OC,/,-7,-1,1.5,2.2,i,/,1.5,/
Cc1noc(C)c1NC(=O)Nc1ccc2c(c1)CC(=O)N([C@@H](C)CO)C[C@H](C)[C@H](CN(C)C)O2,/,4,4,-2.4,/,i,/,-2.4,/
O=C1CCC(C(=O)OCc2nnc(-c3ccc(Br)cc3)o2)=NN1,0.69,6,11,0.0,3.6,i,/,-0.3,/
O=C(CC1S/C(=N\S(=O)(=O)c2ccccc2)N(c2ccccc2)C1=O)Nc1ccc(F)cc1 (stereo not drawn),/,/,/,/,0.9,/,25%,/,-31
COc1ccc(C(=O)NCC2OCCc3ccccc32)c(O)c1 (stereo not drawn),0.71,/,/,/,4.1,/,-1%,/,23
O=S(=O)(Cc1ccccc1)N1CCCCN2[C@H](CO)[C@@H](c3ccc(C#Cc4ccccc4)cc3)[C@@H]2C1,/,6,44,4.3,/,i,/,-5.3,/
COc1ncnc2c1ncn2CC1COC(C)(C)O1 (stereo not drawn),0.63,/,/,/,1.3,i,/,0.5,-7
CC(CC(=O)Nc1nccs1)c1ccccc1 (stereo not drawn),0.68,-2,-7,1.0,-2.4,i,-9%,5.1,-9
COc1ccc(C2NC(=S)NC(C)=C2C(=O)N2CCOCC2)cc1 (stereo not drawn),0.71,18,7,-2.6,3.8,/,-11%,-6.7,-21
CCC(=O)N1C[C@@H](C)[C@@H](OC)CN(C)C(=O)c2ccc(NC(=O)c3ccccc3)cc2OC[C@H]1C,/,-1,2,0.3,/,i,/,-2.2,/
Cc1noc(C)c1NC(=O)N(C)C[C@H]1Oc2ccc(NC(=O)Nc3ccc(F)cc3)cc2C(=O)N([C@@H](C)CO)C[C@@H]1C,/,4,4,-0.9,/,i,/,-14,/
C[C@@H]1CCCCO[C@H](CN(C)C(=O)Nc2ccc(F)cc2)[C@H](C)CN([C@@H](C)CO)C(=O)c2cc(N(C)C)ccc2O1,/,-3,2,1.5,/,i,/,12,/
ClCc1csc(-c2ccc(Cl)cc2)n1,0.67,/,/,/,-0.4,/,25%,/,98*
O=C1CCCc2c1nc(-c1ccccc1F)n2O,0.69,13,8,2.2,2.5,i,-6%,-1.1,0
COc1ccc(CCNC(=O)CCn2cccc2)cc1OC,0.69,12,8,-1.3,-3.3,/,-11%,/,-3
COc1cc(C(=O)NCCc2ccc(S(N)(=O)=O)cc2)cc(OC)c1OC,0.68,/,/,/,0.3,/,1%,/,-23
CN(C)S(=O)(=O)c1ccc(C(=O)Nc2ccc(OCC(=O)N3CCOCC3)cc2)cc1,0.7,/,/,/,-0.2,/,7%,/,-4
O=C(O)C1CCCN1C(=O)C1CCN(S(=O)(=O)c2cccc(C(F)(F)F)c2)CC1 (stereo not drawn),0.67,1,3,-2.7,-2.0,i,-7%,-1.6,/
O=C1NC(Cc2ccccc2)c2nc3ccc(Cl)cc3c(=O)n2-c2ccc(Cl)cc21 (stereo not drawn),/,-6,-14,1.7,/,i,/,3.3,-4
CC(=O)c1ccc(NC(=O)CCOc2cc(C)ccc2C)cc1,0.68,4,6,1.2,0.5,i,/,-0.9,4
CCc1nnc(NC(=O)CSc2ncnc3scc(-c4ccc(C)cc4)c23)s1,0.72,/,/,/,-0.5,/,-22%,/,-17
COc1ccc(CN(C)C[C@@H]2OCCCC[C@@H](C)Oc3ccc(NS(=O)(=O)c4ccc(Cl)cc4)cc3C(=O)N([C@@H](C)CO)C[C@H]2C)cc1,/,6,-6,2.9,/,i,/,-5.4,/
O=C(NC1CCCC1)[C@@H]1[C@@H](CO)[C@@H]2Cn3c(ccc(-c4ccccc4F)c3=O)[C@H]1N2C(=O)CC1CC1,/,0,5,0.0,/,i,/,-0.3,/
Cc1nnc(N/N=C\c2ccc(-c3ccccc3[N+](=O)[O-])o2)n1N,/,-24,-3,-15,-0.4,i,7%,-1.2,-19
C[C@@H]1CCCCO[C@@H](CN(C)S(=O)(=O)c2ccccc2)[C@@H](C)CN([C@H](C)CO)C(=O)c2cc(NC(=O)NC3CCCCC3)ccc2O1,/,2,10,-1.5,/,i,/,0.3,/
# The list continues.
SMILES,E coli growth,Ecoli rRNA inh,Ecoli rRNA inh OD600,Ecoli rRNA inh RFP,HNF4A DNA FP,FGF22 binding,Vif TR-FRET,MLL AF4-AF9 inh,ALR inh
CCCNC(=O)N(C)C[C@@H]1Oc2ncc(-c3ccccc3)cc2C(=O)N([C@@H](C)CO)C[C@H]1C,/,-2,2,-0.1,/,i,/,-0.2,/
O=C(NCc1ccccc1Br)c1ccc2c(c1)OCCO2,0.65,-15,-18,-7.7,2.1,i,/,2.5,6
CCCNC(=O)N1C[C@@H](C)[C@H](OC)CN(C)C(=O)c2ccc(NC(=O)CCC)cc2OC[C@@H]1C,/,3,0,0.7,/,i,/,-2.1,/
O=c1[nH]nc(C(F)(F)F)c2nnn(Cc3ccccc3Cl)c12,0.71,-10,5,-1.7,-1.5,i,-2%,-3.6,0
COc1ccc(NS(=O)(=O)c2cccc(C(=O)NCC(c3ccc(OC)cc3)N3CCOCC3)c2)cc1 (stereo not drawn),/,-5,-12,0.5,-1.2,i,/,1.8,3
NNC(=O)CN1C(c2cccc(Cl)c2)=Nc2ccc(Br)cc2C1c1ccccc1 (stereo not drawn),0.71,/,/,/,1.6,/,2%,/,-2
